HSV augment – increases HSV replication in cells | 220,000 tested, 0.005% active | AID 1956 | HSV replication augmentation in cells, fold increase | maximum fold increase;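 active = peak rise of 1.5-fold or more in the series; tested in PC3 cells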;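 also: first round at 10 µM; read as green reporter fluorescence; hits show the peak of a series up to 25 µM; 1 = signal of infected wells without compound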
INS promoter inh – TRM-6 insulin promoter activity inhibition. TRM-6 cells (human fetal islet line), insulin promoter-eGFP reporter, imaging; reporter expression induced with tamoxifen. inhibition, % at 2 µM. 130,000 tested, 0.9% active. AID 1273;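 active = inhibition above the mean plus 3 SD, with well images judged a real hit on visual review, cut at about 60% in these data, passing the limit was not always enough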
GALR2 agonist – activates the human galanin receptor 2; 140,000 tested, 0.48% active; GALR2-expressing cells, agonist activation read-out; AID 803; activation, %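 (tested at 5 µM)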; O43603;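 active = above mean plus 3 SD of all compounds, about 5% in these data, not always enough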;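 also: 0% = vehicle buffer wells and 100% = reference agonist at full effect; tested in CHO reporter cells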
RGS16-Gao – RGS16-Galphao interaction regulator (human) | O15492+P09471 | 220,000 tested, 0.38% active | binding response (% of control), % at 10 µM | bead-based flow cytometry RGS16-Galphao binding, fluorescence; actives lie on both sides;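 active = below 25% or above 175%, edge rows of some plates excepted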;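 also: Galphao activated by GDP with aluminum fluoride before binding; 100% = wells without compound and 0% = beads without RGS; some results beyond the cut were filed as inactive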
PKD1 inh – inhibitors of human PKD1 kinase; Q15139; PKD1 kinase fluorescence polarization assay; inhibition, %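 (about 10 µM by stock and volumes)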; 200,000 tested, 0.056% active; AID 797;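 active = inhibition of 50% or more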;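 also: controls were vehicle for no effect and a reference inhibitor for full effect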
Target sequence (Q15139 whole entry, looked up): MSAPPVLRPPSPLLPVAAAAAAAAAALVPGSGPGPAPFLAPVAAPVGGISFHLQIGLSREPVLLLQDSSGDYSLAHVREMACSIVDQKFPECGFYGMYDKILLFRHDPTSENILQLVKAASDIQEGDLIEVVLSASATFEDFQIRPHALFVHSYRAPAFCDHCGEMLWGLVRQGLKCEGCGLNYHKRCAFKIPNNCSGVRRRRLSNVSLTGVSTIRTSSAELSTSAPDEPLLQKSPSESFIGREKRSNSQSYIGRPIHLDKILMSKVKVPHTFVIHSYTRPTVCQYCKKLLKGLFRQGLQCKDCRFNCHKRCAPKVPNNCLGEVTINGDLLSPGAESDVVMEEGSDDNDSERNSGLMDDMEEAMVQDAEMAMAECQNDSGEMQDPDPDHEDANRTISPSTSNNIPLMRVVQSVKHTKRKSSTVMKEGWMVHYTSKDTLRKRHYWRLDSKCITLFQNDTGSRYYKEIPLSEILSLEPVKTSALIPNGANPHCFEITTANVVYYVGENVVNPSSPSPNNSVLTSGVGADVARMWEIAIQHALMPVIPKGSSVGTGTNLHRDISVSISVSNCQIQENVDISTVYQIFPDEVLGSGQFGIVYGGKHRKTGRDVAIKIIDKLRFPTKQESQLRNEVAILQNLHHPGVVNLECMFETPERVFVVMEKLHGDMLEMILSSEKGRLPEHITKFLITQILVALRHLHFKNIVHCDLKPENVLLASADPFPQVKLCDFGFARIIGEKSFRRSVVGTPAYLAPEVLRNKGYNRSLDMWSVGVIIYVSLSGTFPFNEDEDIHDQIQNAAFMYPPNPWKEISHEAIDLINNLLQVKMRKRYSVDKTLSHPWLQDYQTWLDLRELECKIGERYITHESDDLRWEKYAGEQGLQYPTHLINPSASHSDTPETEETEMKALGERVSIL
INS promoter inh cell count – further read-out of INS promoter inh, marked with its call; normalized cell count, %; measured here: cell count, toxicity; reference of the scale not given here;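 cells exposed to compound for 48 h; stained nuclei by imaging scaled within each plate; lower means fewer cells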
HSV augment primary fold – also measured in HSV augment; calls as there; fold increase; compound at 10 µM; measured here: primary screen fold increase 10 uM; tested in PC3 cells;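 GFP signal in the first replicate; 1 = infected wells without compound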
Numbers without * were called inactive; i = inactive; . = not tested or not shown.

item | Compound | HSV augment | HSV augment primary fold | INS promoter inh | INS promoter inh cell count | GALR2 agonist | RGS16-Gao | PKD1 inh
1 | Cc1ccccc1OCCn1cc(C(=O)C(=O)N2CCOCC2)c2ccccc21 | i | 0.8 | . | . | . | 99.3 | -4.2
2 | Cc1c(Br)c(C(F)(F)F)nn1CC(=O)NCCCn1ccnc1 | i | 1.07 | . | . | . | 99.9 | 5.2
3 | Cc1ccc(C(C[N+](=O)[O-])c2c(N)n(C)c(=O)n(C)c2=O)cc1 (centres undefined) | i | 1.01 | . | . | . | 100.6 | .
4 | CC(=O)Nc1ccc(NC(=O)c2ccco2)cc1 | i | 0.75 | . | . | 0.4 | -100.5* | -1.4
5 | CN(CC(=O)NCc1ccco1)S(=O)(=O)c1ccc2c(c1)c(=O)n(C)c(=O)n2C | i | 0.99 | . | . | . | 104.2 | .
6 | COc1ccc(N2CC(C)Cn3c2nc2c3c(=O)n(Cc3ccc(F)cc3)c(=O)n2C)c(OC)c1 (centres undefined) | i | 0.87 | . | . | -1.2 | 98.2 | -12.8
7 | O=C1CCC/C(=N\NC(=O)c2ccc(CSc3cccc4cccnc34)cc2)C1 | i | 0.88 | . | . | . | 94.1 | -4.3
8 | COc1ccccc1/C=C(/C(=O)OCC(=O)Nc1cc(C)ccc1C)c1ccccc1 | i | 1.08 | 16.7 | 86.8 | -0.8 | 102.0 | -4.3
9 | C=CCc1ccccc1OCCOc1ccc([N+](=O)[O-])cc1/C=N/NC(N)=O | i | 0.99 | 0.0 | 81.1 | . | 94.8 | -7.9
10 | COc1cccc(CNCCSc2nnnn2C)c1 | i | 0.81 | . | . | -2.2 | 91.2 | -3.6
11 | COc1ccc(S(=O)(=O)NCC(=O)N(CC(=O)NCC2CCCO2)c2cc(C)ccc2C)cc1 (centres undefined) | i | 0.97 | 28.6 | 88.5 | -1.7 | 98.6 | -3.8
12 | Oc1ccccc1C=NCCCCCCN=Cc1ccccc1O | i | 0.93 | . | . | . | 104.7 | .
13 | COc1ccccc1N1CCN(CC(=O)Nc2sccc2C#N)CC1 | i | 1 | 33.3 | 100.0 | -0.9 | 98.8 | -5.2
14 | S=c1[nH]nc(-c2ccccn2)n1/N=C/c1cccc(Cl)c1 | i | 0.99 | -14.3 | 84.9 | . | 62.2 | -6.7
15 | O=C(c1ccc(Br)o1)N1CCc2ccccc21 | i | 0.93 | . | . | . | 104.5 | -1.5
16 | CCCOc1ccc(CCC(=O)N/N=C/c2ccncc2)cc1 | i | 1.03 | . | . | . | 91.2 | .
17 | CC(C)N(C(C)C)S(=O)(=O)c1ccc(Cl)nc1 | i | 1.07 | -36.4 | 108.8 | . | 102.7 | 8.9
18 | CSc1ccc(C(=O)C2CCCN(C(=O)CCCn3cncn3)C2)cc1 (centres undefined) | i | 1.02 | . | . | . | 96.3 | -1.9
19 | O=C(CN1CCN(Cc2ccccc2Cl)CC1)N/N=C/C=C\c1ccccc1[N+](=O)[O-] | i | 0.84 | -40.0 | 107.8 | 1.1 | 117.6 | -1.0
20 | NCc1ccccc1COc1ccccc1 | i | 0.91 | 58.3 | 110.0 | -1.3 | 110.2 | -4.6
21 | O=C(c1ccc2c(=O)n(-c3ccccc3)c(=O)[nH]c2c1)N1CCCCC1 | i | 0.91 | 52.9 | 141.2 | -1.7 | 102.1 | -5.1
22 | O=C(Nc1nc(=O)n(C(=O)C2CC2)s1)c1ccccc1 | i | 1.09 | 9.4 | 184.4 | -4.4 | 107.2 | 3.0
23 | Cc1ccc(-c2nn3c(=O)c(C)nnc3s2)cc1 | i | 1.03 | 3.2 | 95.3 | -3.4 | 93.4 | -21.1
24 | Cn1c(SCC(=O)Nc2cccc(F)c2)nnc1-c1cccnc1 | i | 1.09 | . | . | -1.2 | 111.0 | 1.1
25 | Cc1cccc(OCCNc2cc(N3CCOCC3)ccc2[N+](=O)[O-])c1 | i | 0.83 | -44.4 | 104.0 | -4.3 | 111.5 | -4.1
26 | COCCNC(=O)CCn1c(=O)oc2ccccc21 | i | 1.2 | -42.9 | 73.3 | -3.0 | 103.2 | -4.6
27 | CC(C(=O)Nc1ccccc1)N(c1cccc(Cl)c1)S(C)(=O)=O (centres undefined) | i | 0.98 | . | . | . | 96.5 | -2.7
28 | CC1(C)CC(=O)c2cnc(NC(=O)C3CCCC3)nc2C1 | i | 0.99 | . | . | -1.6 | 93.8 | 12.9
29 | Cc1csc(CCc2nc(C)cs2)n1 | i | 1 | -40.9 | 101.6 | -1.6 | 100.3 | -1.6
30 | O=C(Nc1ccc(NC(=S)NC(=O)c2cccs2)cc1)c1ccccc1 | i | 0.87 | -3.2 | 76.5 | -1.5 | 78.6 | -2.5
31 | O=C1NCC(O)=C1C=Nc1ccccc1O | i | 1 | . | . | . | 84.5 | .
32 | CC1C(c2ccccc2)N(C)C(c2ccccc2)CC1(O)c1ccccc1 (centres undefined) | i | 1.1 | . | . | -2.3 | 140.9 | -7.0
33 | O=C(Nc1ccc2c(c1)OCCO2)c1ccc(Br)o1 | i | 0.94 | . | . | -1.0 | 101.5 | 7.1
34 | O=C(O)Cn1cc(/C=N/NC(=O)c2cc3cc(Br)ccc3o2)c2ccccc21 | i | 0.98 | . | . | . | 96.9 | .
35 | CCCCN(c1ccccc1)c1ncnc2nc[nH]c12 | i | 1.03 | . | . | -1.4 | 102.0 | 3.4
36 | CCCCOC(=O)C[N+](C)(C)CCOC1CC2CCC1(C)C2(C)C (centres undefined) | i | 1.01 | -9.7 | 75.6 | -1.9 | 107.0 | 10.2
37 | CCN(CC)S(=O)(=O)c1cccc(C(=O)N/N=C/c2cccc(O)c2O)c1 | i | 0.58 | -14.3 | 69.6 | -0.3 | 52.2 | -6.8
38 | CCN(CC)C(=O)C1CCCN(C(=O)Nc2ccc(NC(=O)N3CCCC(C(=O)N(CC)CC)C3)cc2)C1 (centres undefined) | i | 1.17 | 0.0 | 133.6 | -2.5 | 103.7 | 2.1
39 | CCOc1ccc2nc(NC(=O)CSc3nc4cccnc4n3C)sc2c1 | i | 0.973 | -66.7 | 116.2 | -1.2 | 108.7 | 24.6
40 | CSc1ccc(Cl)c(C(=O)Nc2ccc(Cl)cn2)c1 | i | 0.79 | . | . | . | 109.1 | 6.3

Four entries drawn at random from the list so far:
item | Compound | HSV augment | HSV augment primary fold | INS promoter inh | INS promoter inh cell count | GALR2 agonist | RGS16-Gao | PKD1 inh
37 | CCN(CC)S(=O)(=O)c1cccc(C(=O)N/N=C/c2cccc(O)c2O)c1 | i | 0.58 | -14.3 | 69.6 | -0.3 | 52.2 | -6.8
33 | O=C(Nc1ccc2c(c1)OCCO2)c1ccc(Br)o1 | i | 0.94 | . | . | -1.0 | 101.5 | 7.1
38 | CCN(CC)C(=O)C1CCCN(C(=O)Nc2ccc(NC(=O)N3CCCC(C(=O)N(CC)CC)C3)cc2)C1 (centres undefined) | i | 1.17 | 0.0 | 133.6 | -2.5 | 103.7 | 2.1
36 | CCCCOC(=O)C[N+](C)(C)CCOC1CC2CCC1(C)C2(C)C (centres undefined) | i | 1.01 | -9.7 | 75.6 | -1.9 | 107.0 | 10.2

Next section.
cpd	smiles	HSV augment	HSV augment primary fold	INS promoter inh	INS promoter inh cell count	GALR2 agonist	RGS16-Gao	PKD1 inh
41	O=C(Cc1csc(-c2ccccc2)n1)NCc1cccs1	i	0.83	-66.7	134.7	.	102.9	-8.5
42	CCOc1ncccc1C(=O)Nc1ccc(S(=O)(=O)Nc2nccs2)cc1	i	0.91	.	.	.	102.4	.
43	Cc1ccnc(NC(=O)C2CCC(CNc3c(N4CCCC4)c(=O)c3=O)CC2)c1 (centres undefined)	i	1	.	.	-1.7	102.4	-9.8
44	O=C(COCC(=O)NCc1ccccc1)NCc1ccccc1	i	0.81	.	.	.	111.1	0.0
45	COc1ccc(CNC(=O)c2ccc(NC(=O)CC3SC(N4CCCCC4)=NC3=O)cc2)cc1 (centres undefined)	i	0.81	4.7	83.3	-3.1	90.0	0.0
46	COc1cc(S(=O)(=O)NC(C)C)ccc1Cl	i	0.95	34.5	41.3	-1.1	96.6	-0.3
47	CCc1nnc(NC(=O)CSc2ncnc3c2oc2ccccc23)s1	i	1.03	.	.	-1.5	103.5	-7.9
48	CCOC(=O)CNC(=O)c1cc(-c2ccccn2)nc2c(C)c(Cl)ccc12	i	0.89	.	.	.	95.7	9.4
49	N#Cc1c(-c2ccc3c(c2)OCO3)ccn2nc(-c3cccc(C(F)(F)F)c3)nc12	i	0.76	-19.4	47.4	-0.2	96.6	-6.1
50	CN(C)/C=C(\C=O)c1ccc(Cl)cc1Cl	i	1.02	.	.	.	94.2	-2.9
51	Cc1nn(-c2ccccc2)nc1C(N)=O	i	1.23	.	.	.	104.5	.
52	O=c1ccc2ccc(Oc3ccc([N+](=O)[O-])cc3Cl)cc2o1	i	0.96	.	.	.	99.7	6.7
53	O=C(COC(=O)Cn1cnc2ccccc21)Nc1cccc2c1C(=O)c1ccccc1C2=O	i	1.05	.	.	0.1	101.8	40.7
54	NC(=S)N/N=C1\CCOc2ccc(F)cc21	i	1.05	.	.	.	95.3	.
55	CCn1c(SCc2cccc(C)c2)nnc1-c1ccccc1	i	0.98	32.4	77.9	-3.1	96.5	-7.3
56	Cc1ccc(S(=O)(=O)NCCCNC(=O)N2CCOCC2)cc1	i	1.22	-73.0	102.8	-1.3	99.2	-5.3
57	Cn1cnc(Sc2ncnc3nc[nH]c23)c1[N+](=O)[O-]	i	1.04	.	.	.	84.2	.
58	CCOc1ncccc1C(=O)OCC(=O)c1cc(C)n(Cc2ccco2)c1C	i	0.67	.	.	-1.1	52.6	8.0
59	COc1ccccc1/C=C/C=N/NC(=O)c1ccccn1	i	1.04	56.5	58.2	.	112.7	0.8
60	CC1CCN(c2c(NCC3CCC(C(=O)NCc4ccccc4Cl)CC3)c(=O)c2=O)CC1 (centres undefined)	.	.	-35.0	107.2	-0.9	102.1	-6.5

Structures listed so far that have an NH in an aromatic ring, in the order listed:
cpd	smiles	HSV augment	HSV augment primary fold	INS promoter inh	INS promoter inh cell count	GALR2 agonist	RGS16-Gao	PKD1 inh
14	S=c1[nH]nc(-c2ccccn2)n1/N=C/c1cccc(Cl)c1	i	0.99	-14.3	84.9	.	62.2	-6.7
21	O=C(c1ccc2c(=O)n(-c3ccccc3)c(=O)[nH]c2c1)N1CCCCC1	i	0.91	52.9	141.2	-1.7	102.1	-5.1
35	CCCCN(c1ccccc1)c1ncnc2nc[nH]c12	i	1.03	.	.	-1.4	102.0	3.4
57	Cn1cnc(Sc2ncnc3nc[nH]c23)c1[N+](=O)[O-]	i	1.04	.	.	.	84.2	.

Additional records.
cpd	smiles	HSV augment	HSV augment primary fold	INS promoter inh	INS promoter inh cell count	GALR2 agonist	RGS16-Gao	PKD1 inh
61	COc1cc(NC(=O)c2ccc(Cl)cc2Cl)ccc1NC(=O)c1cccs1	i	0.85	.	.	.	100.5	.
62	COc1ccc(CN(C)CC(=O)Nc2ccc(SC(F)F)cc2)cc1OC	i	0.92	16.7	121.0	.	98.3	5.9
63	CCOc1ccccc1-n1c(C)nc2cc(C(=O)O)ccc21	i	0.97	.	.	.	101.6	14.4
64	O=C(Cc1ccccc1F)Nc1ccccc1-c1ccccc1	i	0.88	-19.1	171.3	.	113.7	-14.5
65	CCOc1ccccc1N(CC(=O)Nc1cccnc1)S(C)(=O)=O	i	0.95	-14.8	69.0	-1.2	103.7	-3.8
66	Cc1onc(-c2ccccc2Cl)c1C(=O)NC(=S)Nc1ccc(C(C)(C)C)cc1	i	1.11	.	.	.	95.5	.
67	CCN(CC)C(=O)CSc1nnc(COc2cccc(C)c2)n1C	i	1.01	7.7	70.5	.	110.3	3.8
68	Cn1c(=O)c2c(ncn2CC(=O)Nc2ccccc2N2CCOCC2)n(C)c1=O	i	0.78	-2.9	128.7	-0.6	103.5	-0.4
69	O=C(N/N=C/c1ccco1)c1cccc(N2Cc3ccccc3C2)c1	.	.	.	.	.	97.7	-3.9
70	CC(=O)N(Cc1nc2sc(C)c(C)c2c(=O)[nH]1)C1CCCC1	i	1.07	.	.	.	97.4	-14.6

One compound at a time (already shown). Order of screens: HSV augment, HSV augment primary fold, INS promoter inh, INS promoter inh cell count, GALR2 agonist, RGS16-Gao, PKD1 inh
Listed for CCOc1ccccc1-n1c(C)nc2cc(C(=O)O)ccc21 = i, 0.97, ., ., ., 101.6, 14.4
Listed for O=C(N/N=C/c1ccco1)c1cccc(N2Cc3ccccc3C2)c1 = ., ., ., ., ., 97.7, -3.9
Listed for CCOc1ccccc1N(CC(=O)Nc1cccnc1)S(C)(=O)=O = i, 0.95, -14.8, 69.0, -1.2, 103.7, -3.8

Bioassay records: PubChem, several laboratories
